High-throughput results from PubChem BioAssay.
Vif TR-FRET: HIV-1 Vif–A3G interaction blockers – biochemical, TR-FRET, GST-Vif 1-94, biotin-A3G peptide, dose response retest, primary screen (AID 1117319) | TR-FRET GST-Vif / biotin-A3G peptide binding; higher % means a stronger effect; test concentration not given here; strong numbers were not always called active | inhibition, %; hits with a dose series show IC50 in µM | 260,000 compounds, 0.57% hits;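 active = above the screen mean plus three standard deviations and confirmed in dose response; inconclusive = results disagree or hit not tested in dose response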;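 note: Vif residues 1-94 fused to GST binding biotinylated APOBEC3G peptide 110-148; 0% = full assay without inhibitor and 100% = GST in place of GST-Vif; retest series ran down from 100 µM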
T cruzi inh: blocks replication of Trypanosoma cruzi; T. cruzi beta-gal in NIH3T3, luminescence, 90 h; inhibition, % (concentration not given with the values); 300,000 compounds, 1.4% hits; AID 1885;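 active = mean inhibition across valid replicates above about 55%, limit read from the data; inconclusive = mean below that limit but half or more replicates reach it; inactive = mean below it, under half of replicates reach it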;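 note: signal also drops with host cell toxicity which is not excluded here; 0% = plate median of DMSO wells and 100% = zero luminescence signal; higher percent means less beta-gal luminescence so fewer parasites; stock transfer was 50 nL into about 50 µL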
Calb FLC: C. albicans growth modulation with fluconazole; C. albicans CaCi-2 (fluconazole-resistant clinical isolate) + fluconazole, Alamar Blue growth, 48 h; growth inhibition, % (concentration not given with the values); 300,000 compounds, 0.57% hits; AID 1979;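 active = most replicates above 75%; inconclusive = exactly half above 75%; inactive = most below 75%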;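 note: all wells also contain fluconazole at 8 µg/ml as a sub-toxic cotreatment; 0% = median of DMSO wells and 100% = median of geldanamycin control wells; wells of about 8 µL received 7.5 nL stock; the first replicate is given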
Beta apoptosis: blocks beta cell apoptosis | INS-1E cytokine-induced death, ATP luminescence, 48 h; percent of positive-control rescue, neutral wells zero | protection from apoptosis, % (test concentration not listed) | 300,000 compounds, 0.8% hits | AID 435005;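 active = all replicates at 75% or more, or half of them and the mean; inconclusive = half reach 75% but not the mean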;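 note: 0% = cytokine-treated negative control wells and 100% = positive control rescue; higher means more ATP so stronger rescue from cytokine killing; wells of about 40 µL received 100 nL stock; the first replicate is given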
Bfl-1 A1 inh: inhibitors of the anti-apoptotic protein A1, read as caspase activation | MEF A1-2A-BIM cells, Caspase-Glo 3/7 luminescence, 3 h; percent of clofoctol response, vehicle zero | 330,000 compounds, 0.066% hits | AID 2462 | caspase activation, % (no concentration beside the values);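 active = over half of replicate activation scores above 10%, or exactly half above 10 with the replicate mean above 10; inconclusive = replicate mean below 10 yet half the replicates above 10; inactive = over half of replicates below 10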;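 note: wells of about 30 µL received 50 nL stock; many hits fall short of the cut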
RanGTP-Impb inh: disruptors of Ran-importin-beta complex formation – biochemical, FRET, CFP-Ran, YFP-importin-beta, homogeneous, primary screen; inhibition, % (concentration not given with the values); cell-free CFP-Ran/YFP-importin-beta FRET ratio; 300,000 compounds, 1.1% hits; AID 2216;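 active = most replicates above 15%; inconclusive = exactly half above 15%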;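 note: 0% = DMSO wells and 100% = Ran loaded with GDP instead of GTP; wells of about 40 µL received 100 nL stock; the first replicate is given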
MLL AF4-AF9 inh: inhibitors of human MLL-AF4/AF9 interaction; P42568; inhibition, % at 10 µM; AID 651704; AlphaScreen, biotin-AF4 peptide binding to FLAG-AF9; 350,000 compounds, 0.47% hits;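 active = every replicate reaching a set inhibition limit, whatever the replicate mean, cut at about 25% in these data; inconclusive = mean inhibition reaches that limit but some replicates miss it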;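 note: 0% = plate neutral control median and 100% = total signal loss; the record names both 10 and 1 µM as test concentration; the first replicate is given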
LANA-H2A inh: blocks KSHV LANA binding to histone H2A/H2B; cell-free LANA-H2A/H2B peptide, fluorescence polarization; inhibition, % (test concentration not listed); 320,000 compounds, 0.6% hits; AID 2629; in the data active = inhibition mostly above about 10%, no sharp cut-off; inactive = mostly below about 6.7%;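 note: stock transfer was 7.5 nL into about 10 µL; 0% = median of vehicle wells and 100% = median of positive control wells; one replicate is shown; the record names a cut of 25% in any replicate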
Target sequence (Q9QR71 whole entry, looked up): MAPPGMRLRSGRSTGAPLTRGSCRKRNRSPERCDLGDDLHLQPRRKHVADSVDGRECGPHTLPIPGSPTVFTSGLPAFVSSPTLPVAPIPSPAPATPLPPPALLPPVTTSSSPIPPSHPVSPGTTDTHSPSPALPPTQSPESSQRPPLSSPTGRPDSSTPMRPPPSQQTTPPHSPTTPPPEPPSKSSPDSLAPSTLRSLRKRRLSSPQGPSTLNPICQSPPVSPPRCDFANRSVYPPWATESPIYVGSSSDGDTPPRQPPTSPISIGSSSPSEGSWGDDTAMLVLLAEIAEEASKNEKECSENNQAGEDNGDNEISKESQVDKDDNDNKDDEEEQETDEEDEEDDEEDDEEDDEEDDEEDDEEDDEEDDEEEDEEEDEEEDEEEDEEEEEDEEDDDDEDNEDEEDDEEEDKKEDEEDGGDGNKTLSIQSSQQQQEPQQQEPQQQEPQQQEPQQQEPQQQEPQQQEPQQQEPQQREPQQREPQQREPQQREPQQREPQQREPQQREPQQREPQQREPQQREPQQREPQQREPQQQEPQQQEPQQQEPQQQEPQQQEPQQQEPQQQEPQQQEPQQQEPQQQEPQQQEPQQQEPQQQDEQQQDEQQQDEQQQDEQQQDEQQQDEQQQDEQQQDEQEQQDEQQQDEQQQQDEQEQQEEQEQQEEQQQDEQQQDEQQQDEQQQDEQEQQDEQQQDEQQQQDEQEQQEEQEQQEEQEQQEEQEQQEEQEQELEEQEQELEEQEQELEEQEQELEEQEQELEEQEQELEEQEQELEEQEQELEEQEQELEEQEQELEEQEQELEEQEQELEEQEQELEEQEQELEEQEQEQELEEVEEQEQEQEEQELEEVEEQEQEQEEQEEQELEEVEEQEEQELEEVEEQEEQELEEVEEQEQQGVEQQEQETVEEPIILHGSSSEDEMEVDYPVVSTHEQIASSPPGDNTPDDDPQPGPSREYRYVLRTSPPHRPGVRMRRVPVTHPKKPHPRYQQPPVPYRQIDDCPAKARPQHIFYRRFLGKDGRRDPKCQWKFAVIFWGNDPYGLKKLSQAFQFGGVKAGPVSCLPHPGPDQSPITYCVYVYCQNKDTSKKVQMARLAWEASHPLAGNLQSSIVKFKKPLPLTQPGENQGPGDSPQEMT
Starred values were filed as active, the others as inactive; ? = inconclusive; . = not tested or not shown; & = joins results of further samples.

entry | mol | Vif TR-FRET | T cruzi inh | Calb FLC | Beta apoptosis | Bfl-1 A1 inh | RanGTP-Impb inh | MLL AF4-AF9 inh | LANA-H2A inh
1 | Cc1cc(C)n(-c2nc3ccccc3n3cnnc23)n1 | -2% | -13 | -19 | -2 | 0.3 | 3.2 | . | -1.1
2 | COc1ccc(-n2nc(C(=O)NCC(=O)N3CCOCC3)c3ccccc3c2=O)c(OC)c1 | . | -13 | -11 | -6 | 1.8 | 2.7 | -0.3 | -3.8
3 | CCc1ccccc1NC(=O)CCc1c(C)nn(-c2ccc(N3CCOCC3)nn2)c1C | . | 6 | 4 | 3 | -0.5 | -0.1 | -0.1 | 1.0
4 | Cc1nc(N/N=C/c2cccc(F)c2)cc(N2CCOCC2)n1 | -4% | 32 | -2 | 7 | 0.4 | 2.3 | -5.2 | -4.7
5 | Cc1ccc(NC(=O)C2COc3ccccc3O2)c(C)c1 (stereo not drawn) | . | -10 | 4 | -2 | 0.6 | ? | -7.6 | 3.9
6 | OCCC1CN(CC2CCCCC2)CCN1CC1CCCCC1 (stereo not drawn) | . | 40 | -19 | . | -0.2 | 0.5 | 0.8 | -1.7
7 | S=C(NCCOCCOCCNC(=S)Nc1ccccc1)Nc1ccccc1 | . | -12 | -10 | -16 | ? | 5.5 | -8.1 | -0.7
8 | Cc1ccccc1NC(=O)Cn1c(=O)n(-c2ccc(CC(=O)NCC3CCCO3)cc2)c(=O)c2ccccc21 (stereo not drawn) | . | -7 | -1 | -6 | 0.2 | 1.2 | 1.6 | -7.2
9 | Cc1ccc(S(=O)(=O)n2ccnc2)cc1C | -1% | 4 | -6 | -4 | -0.2 | 0.6 | -3.4 | 7.5
10 | COc1ccc(Cn2nnnc2C(c2ccccn2)N2CCN(c3cc(Cl)ccc3C)CC2)cc1 (stereo not drawn) | 15%&-3% | 65* | -9 | 14 | 0.2 | 1.3 | . | -6.5
11 | Cc1nn2cc(-c3ccccc3)nc2[nH]c1=O | 0% | -2 | 4 | -5 | -5.5 | -0.6 | . | -4.0
12 | Cc1ccc(N2CCN(C(=O)Nc3cccc([N+](=O)[O-])c3)CC2C)cc1 (stereo not drawn) | -3% | 13 | 0 | -2 | 0.6 | 0.3 | 14 | -0.8
13 | COc1cccc(/C(C)=N/NC(=O)c2cc(-c3cccnc3)nc3ccccc23)c1 | 0% | 10 | -5 | -2 | 0.2 | -3.2 | -1.2 | 0.8
14 | C=CCCC1(C)C(=O)N(c2ccccc2)c2ccccc21 (stereo not drawn) | 7% | -25 | 7 | -3 | -0.2 | ? | . | 6.6
15 | N#Cc1nc(-c2ccc(OCc3ccccc3)cc2)oc1NCCN1CCOCC1 | -6% | -16 | -3 | -2 | -0.2 | 2.5 | . | -1.4
16 | CCCN1CCN(C(=O)Cn2nc(C)n3c(cc4sccc43)c2=O)CC1 | . | 9 | -6 | . | -0.4 | 3.0 | -1.1 | 2.2
17 | N#Cc1ccc(C2=CC(=O)C[C@H](c3ccc4c(c3)OCO4)C2)cc1 | . | . | . | -4 | -0.9 | . | 12 | 2.8
18 | Cc1ccc(-n2c(=S)[nH]c3nc4c(cc3c2=O)COC(C)(C)C4)cc1 | . | 3 | -15 | -2 | 2.3 | -3.9 | . | 13
19 | Cc1c(N2C(=O)c3cccc4cccc(c34)C2=O)c(=O)n(-c2ccccc2)n1C | 2% | -19 | -1 | 5 | 0.5 | -5.8 | . | -0.1
20 | CC(C)c1ccc(OCCCCCN2CCOCC2)cc1 | -3% | -8 | 5 | -2 | -0.7 | 2.8 | 1.0 | 4.1
21 | COc1ccc(C2CC(C(F)(F)F)n3ncc(C(=O)O)c3N2)cc1OC (stereo not drawn) | ? | 2 | -1 | . | -0.2 | 0.4 | . | -0.2
22 | C/C(CC(=O)Nc1ccc(Cl)cc1Cl)=N\NC(N)=S | 6% | 16 | ? | 6 | 0.3 | 0.2 | . | 1.7
23 | Cc1ccc(Cl)c(NC(=O)COC(=O)CNS(=O)(=O)/C=C/c2ccccc2)c1Cl | 5% | -16 | 2 | -1 | 1.1 | 4.6 | . | .
24 | CCN(CC)CCCn1c2c(c(SCC(=O)Nc3cc(OC)cc(OC)c3)nc1=O)CCC2 | . | 14 | -4 | -4 | 0.6 | ? | 1.5 | 0.2
25 | CCc1cc2c(COC(=O)c3cccc(S(C)(=O)=O)c3)cc(=O)oc2cc1O | . | -24 | -5 | -16 | 0.6 | 8.5 | 0.6 | 9.6
26 | Cc1ccc(-n2c(N)c(C(=O)Nc3c(C)n(C)n(-c4ccccc4)c3=O)c3nc4ccccc4nc32)cc1C | ? | 8 | -3 | 42 | 0.3 | 5.3 | . | .
27 | Cc1cc(-c2ccccc2)nc(SCc2ccc(C(=O)O)cc2)n1 | . | -1 | -3 | -12 | 0.9 | -0.9 | -4.2 | 1.3
28 | CCn1c(=O)cc(OCC(=O)NCCc2cccc(C)c2)c2ccccc21 | 11% | 26 | 1 | 3 | 0.7 | -2.9 | . | 0.6
29 | O=C(N/C(=C\c1ccco1)C(=O)N1CCC(O)CC1)c1ccccc1 | . | -7 | 13 | 2 | 0.7 | -2.2 | -1.3 | 2.3
30 | CCOc1ccc(C(=O)CN2CCN(S(=O)(=O)c3ccc(Br)cc3)CC2)cc1 | 2% | 2 | -16 | -1 | 0.4 | 8.8 | . | -2.8
31 | CCc1ccccc1-n1nnnc1-c1cnccc1C(F)(F)F | 26% | 12 | -1 | 0 | 0.6 | 5.2 | 0.5 | 2.9
32 | C=C(C)CN(CC)C(=O)CCc1nnc(CCc2c[nH]c3ccccc23)o1 | -6% | -26 | -2 | -3 | 0.6 | -4.0 | -0.9 | 4.2
33 | CCOC(=O)Cc1cnc(NC(=O)Cn2nnc(-c3ccc(OCC)cc3)n2)s1 | ? | 4 | -9 | -1 | 0.8 | 0.6 | . | -1.3
34 | Clc1ccccc1/C=C/c1nc(-c2ccccn2)no1 | -5% | 7 | -10 | 4 | -7.8 | -4.4 | 1.9 | -4.6
35 | O=S(=O)(c1cccc2ccccc12)n1nnc2ccccc21 | 65% | -9 | 3 | -2 | 0.2 | 4.9 | . | -1.2
36 | COc1cccc(NC(=O)CN(c2ccc3c(c2)OCO3)S(C)(=O)=O)c1 | 5% | 9 | 4 | . | -0.2 | 2.5 | 2.0 | 7.3
37 | Cc1cc(=O)oc2c(C)c(OCC(=O)N3CCN(C(=O)C4COc5ccccc5O4)CC3)ccc12 (stereo not drawn) | . | 26 | 2 | 9 | ? | -0.4 | -3.0 | 1.7
38 | COc1ccc(CCNC(=O)COc2ccc(N(C)S(=O)(=O)c3ccc(Cl)cc3)cc2)cc1 | 31% | 39 | 12 | . | . | -1.7 | 0.0 | .
39 | COCCN(Cc1cccs1)S(=O)(=O)c1csc(C(N)=O)c1 | . | -4 | -11 | -12 | -0.4 | -1.2 | -1.1 | 5.1
40 | Cn1c(=O)oc2cc(S(=O)(=O)Nc3cccc([N+](=O)[O-])c3)ccc21 | -2% | -1 | -4 | -2 | 1.0 | 2.4 | -3.2 | 0.5
41 | COc1cccc(/C=C2/SC(=S)N(CC(=O)NNC(=O)c3ccccc3OC)C2=O)c1 | 13% | -5 | -49 | 2 | -0.5 | 1.1 | -1.2 | -2.0
42 | Cc1ccc(S(=O)(=O)N2CCN(C(=O)COC(=O)/C=C/c3ccccc3[N+](=O)[O-])CC2)c(C)c1 | 2% | -12 | -5 | -4 | 0.5 | ? | -2.8 | 1.8
43 | O=S(=O)(c1ccc(S(=O)(=O)N2CCCC2)cc1)N1CCCCCC1 | 70% | 8 | -17 | . | 1.6 | -3.8 | 0.3 | -4.5
44 | CCOC(=O)C1CCN(C(=O)C2CCN(c3nn4c(=O)cc(C)nc4s3)CC2)CC1 | . | -3 | -5 | 0 | -0.6 | 1.1 | 1.9 | -7.6
45 | O=C(O)[C@H](Cc1ccccc1)NC(=O)N1CCCCCC1 | -11% | 7 | -2 | -7 | 0.6 | 1.0 | -1.0 | 4.9
46 | CCCn1c(SCc2nc(-c3cccs3)no2)nnc1-c1ccncc1 | 4% | 7 | 2 | -2 | -1.0 | -2.4 | . | 5.8
47 | CCOc1ccc(CC(=O)Nc2c3c(nn2C(C)(C)C)CS(=O)(=O)C3)cc1 | 3% | -3 | -7 | 2 | 0.3 | 4.3 | -0.3 | 7.8
48 | CC(=O)Nc1nc(=O)c2ccccc2s1 | 31% | 44 | 42 | -6 | -0.2 | 0.2 | -37 | -8.0
49 | CCC(=O)Nc1c(S(=O)(=O)c2ccccc2)c2nc3ccccc3nc2n1C(C)c1ccccc1 (stereo not drawn) | 7% | 6 | 7 | 3 | 0.3 | 4.3 | . | 2.8
50 | CC(C)c1ccccc1OCCNC(=O)c1cccnc1 | -2% | -15 | 1 | 2 | -0.3 | -2.1 | -0.4 | 0.9
51 | COCCn1c(=S)[nH]c2cc(C(=O)NC(C)C)ccc2c1=O | 31% | . | . | -7 | 1.3 | . | . | 0.4
52 | O=C(CSc1nnnn1C1CC1)N1CCN(c2ccccc2F)CC1 | -2% | . | . | -1 | 1.0 | . | 0.7 | -8.7
53 | CCCC(C(=O)NCC1CCCO1)N(Cc1ccccc1)C(=O)CNS(=O)(=O)c1ccccc1 (stereo not drawn) | 4% | 7 | 9 | 3 | -0.8 | -1.1 | 0.3 | -0.8
54 | CN(c1ccccc1)S(=O)(=O)c1ccc(Cl)c(C(=O)NCCc2c[nH]c3ccccc23)c1 | . | 1 | -5 | 3 | -0.6 | 0.2 | -7.4 | -12
55 | COC(=O)c1ccccc1NC(=O)C1CCN(S(=O)(=O)c2cc(C)ccc2OC)CC1 | 7% | 6 | 2 | -1 | -0.2 | -3.0 | . | -1.5
56 | O=C(OCC(=O)c1ccc[nH]1)c1ccc2ccccc2n1 | 8% | -6 | -1 | 1 | 2.1 | -0.9 | -1.4 | 1.9
57 | CCOC(=O)CN1C(=O)N[C@@H](CCc2ccccc2)[C@H](C(C)=O)[C@H]1C | . | -6 | -3 | -9 | -0.3 | 1.0 | 5.1 | 0.5
58 | CC(O)[C@H]1CN=C(N)N1CCCCC1CCCCC1 (stereo partly drawn) | . | -14 | 29 | 6 | -0.6 | -0.6 | 1.8 | 0.7
59 | CC12CCC(=O)N1C(C(=O)NCCN1C(=O)S/C(=C\c3ccc(OC(F)F)cc3)C1=O)CS2 (stereo not drawn) | 2% | -7 | 27 | -1 | 0.5 | 2.6 | -5.3 | -3.1
60 | O=C1COc2ccc(C(=O)CSc3nnc(NCc4ccccc4)s3)cc2N1 | -1% | -6 | 4 | -4 | 0.9 | -2.9 | 0.1 | -6.9
61 | O=C(O)CCc1nc2cc3ccccc3cc2[nH]1 | 1% | -1 | 0 | -6 | 1.4 | 1.3 | -3.6 | -4.3
62 | N#CCCN(C(=O)COC(=O)c1ccc(S(=O)(=O)N2CCCCCC2)cc1)c1ccccc1 | . | -2 | -1 | -10 | 1.0 | . | 0.0 | -3.5
63 | COCCn1c(SCC(=O)Nc2nnc(C)s2)nnc1-c1cc2ccccc2cc1O | 5% | 0 | -3 | -7 | -0.6 | 1.5 | . | 5.4
